gsp antagonist: qHTS for Antagonists of gsp, the Etiologic Mutation Responsible for Fibrous Dysplasia/McCune-Albright Syndrome: qHTS. actives 0.4% (n = 340,000). gsp-mutant cells, cAMP HTRF, 30 min; control for the full effect not named in the record. Potency, µM (series often up to 76.9 µM), for inactives: top-dose activity change, negative = inhibition, hits mostly inhibitors. AID 624288, 2012; active = falling curve of any shape with a large fitted effect; inconclusive = falling curve, mostly with a smaller effect; inactive = flat or rising curve; cell line not stated here;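 further: intracellular cAMP measured with PDE inhibitor Ro 20-1724 present during compound exposure; potency means the concentration at half of the fitted maximal effect; on the % scale 0 is the no-effect control and ±100 the full control effect; nearly all actives have a fitted effect of over 65% in size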
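Cells, 2000/well, grown 16–24 h in DMEM 10% FBS with 0.5 mg/ml G418, then compounds plus […] (300 uM addition stock), 30 min at 37C. cAMP read by HTRF (cAMP-d2 and anti-cAMP antibody-K in lysis buffer) after 30 min RT.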
ClpP mod: qHTS Assay for Activators of ClpP. purified B. subtilis ClpP, FRET peptide cleavage, 20 min. Potency, µM (series often up to 57.5 µM), for the others: at the top dose activity change, negative = active. actives 1.9% (n = 340,000). AID 651965, 2013; active = well fitted falling curve with a large enough effect; inconclusive = small, poorly fitted or top-dose-only effect; inactive = no such curve, though single readings can be large or run the other way; further: potency means the concentration at half of the fitted maximal effect; the source files actives as falling curves though it sought activators and does not explain the sign; nearly all actives have a fitted effect of over 65% in size; many hits overshoot -100%
Target sequence (P80244 whole entry, looked up): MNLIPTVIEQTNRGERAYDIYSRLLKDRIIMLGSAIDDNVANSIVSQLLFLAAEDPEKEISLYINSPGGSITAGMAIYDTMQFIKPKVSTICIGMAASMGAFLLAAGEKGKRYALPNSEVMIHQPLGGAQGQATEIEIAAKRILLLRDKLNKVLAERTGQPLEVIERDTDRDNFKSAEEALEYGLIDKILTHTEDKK
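Purified B. subtilis ClpP, 10 microg/mL final in Tris/HCl pH8 with KCl, BSA, glycerol and Tween-20, cleaved an Abz/nitrotyrosine-quenched decapeptide. Fluorescence (ex 320, em 430) was read at 0 and 20 min at room temperature. Delta was normalized to 5.8 microM ADEP and DMSO/no-enzyme controls.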
CtBP-E1A inh: qHTS Assay for Inhibitors of the CtBP/E1A Interaction; AID 651724, 2012; CtBP / adenovirus E1A interaction (AlphaScreen); activity change, % (no concentration beside the values); actives 0.49% (n = 340,000); AlphaScreen GST-E1A/His-CtBP binding, 1536-well; stronger effect = lower value; control for the full effect not named in the record; in the data active means activity change below about -65%; inconclusive means about -30% to -65%; inactive means above about -30%; further: on the % scale 0 is the no-effect control and ±100 the full control effect; compound concentration not given in the record
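Homogeneous bead-based format: GST-tagged E1A captured on glutathione donor beads, His-tagged CtBP on nickel acceptor beads; compounds precede bead addition by 2 h at 37 °C.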
Sfp PPTase inh: qHTS Assay for Inhibitors of Bacillus subtilis Sfp phosphopantetheinyl transferase (PPTase); Biochemical Sfp PPTase activity, qHTS; Potency, µM, for the others: max response, negative = inhibition, usual class: inhibitors; actives 3.5% (n = 310,000); active means well fitted inhibition curve with a large enough effect; inconclusive means small, poorly fitted or top-dose-only effect, or another doubt; inactive means no such curve, though single readings can be large or run the other way;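 further: the enzyme is Sfp with the accession as filed and its product quenches rhodamine fluorescence; potency means the concentration at half of the fitted maximal effect; 0% = enzyme reaction without inhibitor and -100% = no enzyme wells; top concentration of the series not given in the record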
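Fluorescence-quenching assay with 15 nM Sfp, 5 uM rhodamine-CoA and 12.5 uM BHQ-2-labelled ybbR peptide in pH 7.6 Hepes/MgCl2 buffer. Enzyme was pre-incubated with compound for 15 min at room temperature. Rate was taken from the 30-min fluorescence change (525/598 nm).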
TRPV1 PAM: HTS Assay for Compounds that Act as Potentiators of the Vanilloid Receptor 1; potentiation, % at 8.33 µM; TRPV1-expressing cells, Fluo-8 calcium influx, capsaicin EC20 potentiation; host cell line not named in the record; control for the full effect not named in the record; actives 0.02% (n = 320,000); AID 540277, 2011; Transient receptor potential cation channel subfamily V member 1 (Homo sapiens), Q8NER1; active means potentiation above 80%; inconclusive means 30% to 80%; inactive means below 30%; further: 0% is about no effect
Target sequence (Q8NER1 whole entry, looked up): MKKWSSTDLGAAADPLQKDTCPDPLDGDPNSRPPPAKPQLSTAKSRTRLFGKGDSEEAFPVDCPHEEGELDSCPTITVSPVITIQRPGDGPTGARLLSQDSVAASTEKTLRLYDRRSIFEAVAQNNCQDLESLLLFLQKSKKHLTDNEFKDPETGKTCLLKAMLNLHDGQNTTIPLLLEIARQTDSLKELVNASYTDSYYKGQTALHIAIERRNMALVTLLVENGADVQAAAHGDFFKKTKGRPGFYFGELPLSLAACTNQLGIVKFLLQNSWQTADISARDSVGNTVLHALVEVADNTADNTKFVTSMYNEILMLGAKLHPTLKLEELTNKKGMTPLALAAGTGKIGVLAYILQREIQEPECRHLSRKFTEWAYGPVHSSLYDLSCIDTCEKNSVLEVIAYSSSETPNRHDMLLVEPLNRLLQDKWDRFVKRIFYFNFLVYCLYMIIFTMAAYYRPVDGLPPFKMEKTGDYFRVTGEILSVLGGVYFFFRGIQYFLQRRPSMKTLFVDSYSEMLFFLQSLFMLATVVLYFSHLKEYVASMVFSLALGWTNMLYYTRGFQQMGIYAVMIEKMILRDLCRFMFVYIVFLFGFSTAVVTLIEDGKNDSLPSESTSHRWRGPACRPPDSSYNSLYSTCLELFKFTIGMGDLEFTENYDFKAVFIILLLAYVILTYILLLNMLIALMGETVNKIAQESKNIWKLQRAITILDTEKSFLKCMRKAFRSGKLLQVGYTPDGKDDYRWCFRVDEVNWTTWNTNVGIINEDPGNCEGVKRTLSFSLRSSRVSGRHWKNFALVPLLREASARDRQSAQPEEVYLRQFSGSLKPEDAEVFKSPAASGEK
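Cells expressing TRPV1 were dye-loaded with Fluo-8 and read kinetically: 10 s baseline, 3 min after compound (agonist portion), then 2 min after EC20 capsaicin (allosteric enhancer portion). Calcium-bound dye fluorescence at 480/520 nm.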
Menin MLL FP FL: qHTS Assay for Inhibitors Targeting the Menin-MLL Interaction in MLL Related Leukemias: Competition With Fluorescein Labeled MLL-derived Peptide; Fluorescence polarization, fluorescein-MLL peptide displacement from menin; FP activity change, % at 61.4 µM; 290,000 tested, under 10 active; inconclusive = falling polarisation curve, or a change in total fluorescence; inactive = total fluorescence flat and polarisation flat or rising; no compound was filed as active; the % refers to the polarisation; negative = inhibition;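 further: % of control where 0% means no effect; inhibitors lower the polarisation; unlabelled MLL peptide was the positive control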
gsp agonist: qHTS for Agonist of gsp, the Etiologic Mutation Responsible for Fibrous Dysplasia/McCune-Albright Syndrome: qHTS; gsp mutant cells, cAMP HTRF, 30 min; control for the full effect not named in the record; Potency, µM (titrated, usually from 76.9 µM), inactives show top-dose activation (cAMP increase), actives largely listed as activators; actives 0.13% (n = 340,000); AID 624287, 2012; active = well fitted activation curve with a large enough effect; inconclusive = small, poorly fitted or top-dose-only effect, or another doubt; inactive = no such curve, though single readings can be large or run the other way; cell line not stated here;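 further: phosphodiesterase inhibitor Ro 20-1724 added with compounds to block cAMP breakdown; potency means the concentration at half of the fitted maximal effect; nearly all actives have a fitted effect of over 60% in size; about a fifth of the inactives were tested at one dose only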
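Cells stably selected in G418 were plated at 2000/well, grown 16-24 hr, then given compounds in DMSO with the PDE inhibitor […] (300 uM solution added) for 30 min at 37C; cAMP was read by HTRF.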
Numbers without * were called inactive; ? = inconclusive; . = not tested or not shown; & = joins results of further samples; [ ] = remark or other dose.

SMILES	gsp antagonist	ClpP mod	CtBP-E1A inh	Sfp PPTase inh	TRPV1 PAM	Menin MLL FP FL	gsp agonist
Cc1c(OCC(=O)NCC2CCC(C(=O)O)CC2)ccc2c(-c3ccccc3)cc(=O)oc12 (configuration not stated)	-28%	-14%	-29	1%	-4	1.4	.
O=C(Cc1ccccc1)Nc1ccccc1C(=O)N1CCN(c2ccccc2)CC1	6%	-1.0%	-2	-7%	-7	-1.2	-33%[inhibitor]
CCC(=O)Nc1cc2nn(-c3ccccc3)nc2cc1Cl	2%	?	2	19%	-16	4.2	9%
O=C(c1ccco1)N1CCN(c2ccnc3cc(Cl)ccc23)CC1	?	0.2%	-6	14%	-7	-1.8	-41%[inhibitor]
Cc1cc(C)n(Cc2ccc(F)cc2)c(=O)c1C#N	-3%	-12%	7	12%	-7	-1.5	-22%
COc1ccccc1CN1CCC(n2nccc2NC(=O)CCc2ccccc2)CC1	3%	-0.4%	1	8%	10	.	-12%
Nc1c(-c2ccccc2)cnn1-c1cccc([N+](=O)[O-])c1	-5%	-3.0%	-15	17%	.	3.2	-11%
c1ccc2nc3c(nc2c1)OCC1CCCCN31 (configuration not stated)	-10%	.	-5	4%	6	-15	?
COc1cc(C2/C(=C(\O)c3ccc4c(c3)OCCO4)C(=O)C(=O)N2c2nnc(C)s2)cc(OC)c1OC (configuration not stated)	4%	-1.3%	4	1%	8	6.4	6%
C/C(=N\NC(=O)C(c1ccccc1)c1ccccc1)c1ccccn1	10%	1.2%	-15	4%	-16	2.8	8%
CCC(C)NC(=O)CSC1=Nc2ccccc2C2=NC(CC(=O)NCc3ccc(F)cc3)C(=O)N12 (configuration not stated)	-1%	32µM*	-7	6%	-4	-0.5	10%
Cc1ccc(-c2ccc(S(=O)(=O)NCc3ccco3)cc2)cc1	0%	.	5	23%	16	4.2	-6%
Cc1ccccc1NC(=O)Cc1nc(COC(=O)/C=C/c2ccc(F)cc2)cs1	.	1.6%	-7	.	.	.	-40%[inhibitor]
N#Cc1nc(N2CCCCC2)nc(N2CCOCC2)n1	8%	0.4%&-1.5%	7	13%	2	2.6	-3%
Cc1ccc(N=C2NC(=O)/C(=C\c3cccs3)S2)cc1C	?	1.1%	16	2%	?	7.0	18%
COC(=O)c1ccc(CN2C(=O)NC3(CCC(C)CC3)C2=O)cc1 (configuration not stated)	7%	-3.0%	-2	5%	0	-5.8	4%[15.4 µM]
Cc1ccccc1N1CCN(C2CCCN(C(=O)CCC3(C)CC3)C2)CC1 (configuration not stated)	-10%	-0.3%	-3	-8%	27	.	30%[15.4 µM]
CCSCc1nnc(SCC(=O)c2ccc(OC)cc2)n1C	11%	-0.1%	2	-23%	1	5.7	-28%
COc1cccc(NC(=O)NC(C)C2CC3CCC2C3)c1 (configuration not stated)	0%	.	0	21%	-9	-5.1	-7%
Cc1cc(C)c(NS(=O)(=O)c2cccc3cccnc23)c(C)c1	-5%	.	-1	5%	10	2.3	-6%[15.4 µM]
O=C(COC(=O)Cc1ccc(S(=O)(=O)N2CCOCC2)s1)Nc1ccc(OC(F)F)cc1	-10%	1.7%	3	.	.	.	0%[15.4 µM]
CN1CCN(C(=S)Nc2cccc(S(=O)(=O)N(C)C)c2)CC1	-5%	.	3	-4%	-13	2.1	2%[15.4 µM]
Cc1cc(Cl)c(Cl)cc1S(=O)(=O)NCCCn1ccnc1	6%	-1.1%	-19	14%	-1	7.6	-29%
O=C(CN1C(=O)NC(Cc2c[nH]c3ccccc23)C1=O)Nc1ccc(F)c(F)c1F (configuration not stated)	0%	0.5%	.	.	-1	.	-4%
COc1ccc([C@@H]2[C@@H]3C(=O)N(C(C)(C)C)C(=O)[C@@H]3[C@]3(C)C(=O)N(c4cccc(Cl)c4)C(=O)N23)cc1	13%	-1.2%	.	.	4	.	?
COc1cccc(N=Cc2c(O)n(-c3cccc(C)n3)c(=O)c3ccccc23)c1	-26%	2.4%	-13	29%	?	-5.9	25%
O=C(Nc1cccc2ncccc12)c1cccc(Br)c1	6%	.	-18	13%	-5	3.4	-3%
CC(=O)c1ccc(Nc2cc(C)nc3c(C)cccc23)cc1	68%[activator]	-6.9%	.	10%	-7	-1.1	38%
COc1cc(NC(=O)N[C@@H](CCSC)C(=O)O)cc(OC)c1	3%	.	-22	-15%	6	3.4	9%[15.4 µM]
O=C(/C=C/c1ccc(F)cc1)NC(=S)NC1CCCCC1	-2%	2.9%	.	-1%	-11	-0.7	-7%
Cc1ccc(C(=O)CCC(=O)OCC(=O)Nc2ccc3[nH]c(=O)[nH]c3c2)cc1	1%	-2.3%	-19	.	10	.	0%
Cc1cc(NC(=O)c2c([N+](=O)[O-])c(C)nn2C)no1	6%	1.7%	-2	15%	-4	7.2	-1%
Cc1ccc(S(=O)(=O)NCC(=O)Nc2ccc3c(c2)OCCO3)cc1	5%	.	3	12%	-5	-6.6	21%[15.4 µM]
CN(C)S(=O)(=O)c1ccc(N2CCCC2)c(C(=O)Nc2nccs2)c1	1%	0.9%	2	.	.	.	-1%
CCN(CC)S(=O)(=O)c1ccc(N2CCN(CCOc3ccc(OC)cc3)CC2)nc1	-15%	.	-10	3%	-3	6.4	20%
COC(=O)c1ccc(NC(=O)CSCC(=O)OCC(=O)c2ccc(Br)cc2)cc1	?	4.1%	7	-9%	5	1.6	17%
O=C(NCCN1C(=O)CSC1=O)C1CC(=O)N(c2ccccc2)C1 (configuration not stated)	0%	-1.2%	3	21%	14	0.9	-41%[inhibitor]
Cc1ccc(S(=O)(=O)N(Cc2ccccc2)C(C)C)cc1	-14%	-0.7%	21	0%	-10	0.4	-1%
O=C(c1ccco1)N1CCN(c2nnc(-c3ccccc3)c3ccccc23)CC1	-27%	-2.6%	-13	-11%	-6	1.3	-5%
COc1ccc(C(=O)N(C)C2CCCc3ccccc32)cc1OC1CCN(C(C)C)CC1 (configuration not stated)	10%	-9.6%	-3	18%	-32	.	-1%[15.4 µM]
O=C(c1ccc(Cl)c(S(=O)(=O)N2CCOCC2)c1)N1CCN(c2ccccc2F)CC1	7%	-2.2%	10	5%	-10	.	8%[15.4 µM]
CCN(C(=O)Cc1cccs1)c1nnc(-c2cccnc2)s1	8%	-2.5%	0	-11%	-27	2.0	21%
CC(=O)NC1=NN(C(C)=O)C(C)(CCS(=O)(=O)c2ccc(Br)cc2)S1 (configuration not stated)	2%	2.2%	-5	13%	-2	3.0	20%[15.4 µM]
O=C(NCc1cccc(F)c1)C1CCC(=O)N(C2CCCC2)C1 (configuration not stated)	7%	1.4%	4	16%	0	-1.8	35%
CC(=O)N1CCN(Cc2nc3cc([N+](=O)[O-])ccc3n2C)CC1	-10%	-2.1%	.	4%	22	-0.4	2%
COc1ccc(-c2nnc(SCC(=O)Nc3ncc(C(F)(F)F)cc3Cl)n2CC(C)C)cc1	-10%	1.1%	8	8%	-30	6.9	-3%[15.4 µM]
CCOC(=O)C1CCN(CC(=O)c2ccc(O)c(C)c2O)CC1	-5%	?	.	6%	-9	1.3	-29%
CC(CCN(C)C)OC(=O)c1ccc(C(C)c2ccccc2)o1 (configuration not stated)	12%	-1.1%	18	10%	-10	4.0	15%
CC(NC(=O)c1ccc(Cl)c(S(=O)(=O)N2CCCCCC2)c1)c1cccnc1 (configuration not stated)	-11%	-0.7%	-6	.	-11	.	11%
O=C(NC1CCCCCC1)C(=O)NC1CCCC1	13%	-8.8%	-1	12%	7	2.5	7%
COc1cccc(CNc2ccc(S(=O)(=O)N3CCN(C)CC3)cn2)c1	8%	?	.	.	0	.	18%
CCOCc1c(C(=O)NC2=Nc3ccccc3NC(CC)=C2C(=O)OCC)oc2ccccc12	?	.	5	-3%	9	0.0	-10%
COc1ccc(CCNC(=O)c2[nH]c(C)c(C(C)=O)c2C)cc1OC	1%	1.7%	0	16%	11	5.2	?
COc1ccc(CCC(=O)Nc2nnc(C(F)(F)F)s2)cc1	4%	-0.3%	5	1%	0	.	?
COc1ccccc1-n1nnnc1SCC(=O)NC(=O)Cc1ccccc1	3%	-1.1%	-7	.	3	.	3%
Cc1cc(N2C(=O)[C@@H]3[C@H](C2=O)[C@@H]2C[C@H]3C(Br)C2Br)no1 (some centres not stated)	1%	1.7%	1	1%	14	6.9	-5%[15.4 µM]
CC12CC(c3ccccc3O1)N(C(=O)c1ccco1)C(=O)N2c1ccccc1 (configuration not stated)	-4%	-2.7%	-7	9%	3	2.0	2%
Cc1sc2ncnc(NCC3CCCO3)c2c1C (configuration not stated)	-9%	-5.6%	7	-8%	2	1.4	0%
COC(=O)CCS(=O)(=O)c1nc(-c2ccccc2)cc(C(F)(F)F)n1	22%	-7.1%	4	-21%	8	-0.7	0%
CCC(=O)N1CCc2cc(S(=O)(=O)CCC(=O)Nc3cccc(F)c3)ccc21	-6%	1.7%	6	2%	-7	4.0	-16%
O=S(=O)(c1ccc(F)cc1)N1CCN(c2nc(-c3cccnc3)nc3ccccc23)CC1	-14%	1.5%	9	.	2	.	-33%[inhibitor]
CCOC(=O)c1cnn(-c2cc(C)c3ccccc3n2)c1N	-7%	2.1%	1	16%	-5	-1.8	0%
c1ccn2cc(CSC3=NCCS3)nc2c1	10%	-6.6%	7	3%	13	3.9	?

Source: PubChem (National Center for Advancing Translational Sciences (NCATS))

No enrichment for hits (roughly 5.3% active in at least one column).
